Source: PubChem (National Center for Advancing Translational Sciences (NCATS))
ClpP mod – qHTS Assay for Activators of ClpP; actives 1.9% (n = 340,000); AID 651965, 2013; purified B. subtilis ClpP, FRET peptide cleavage, 20 min; Potency, µM (top dose mostly 57.5 µM), for inactives: at the highest dose activity change, negative = active; active = well fitted falling curve with a large enough effect; inconclusive = small, poorly fitted or top-dose-only effect; inactive = no such curve, though single readings can be large or run the other way; further: potency means the concentration at half of the fitted maximal effect; the source files actives as falling curves though it sought activators and does not explain the sign; nearly all actives have a fitted effect of over 65% in size; many hits overshoot -100%
Target sequence (P80244 whole entry, looked up): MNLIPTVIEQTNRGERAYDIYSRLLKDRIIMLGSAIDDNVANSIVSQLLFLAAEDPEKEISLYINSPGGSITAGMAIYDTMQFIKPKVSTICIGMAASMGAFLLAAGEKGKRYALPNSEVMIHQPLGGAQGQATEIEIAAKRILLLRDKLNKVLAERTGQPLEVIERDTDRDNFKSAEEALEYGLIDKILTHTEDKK
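FRET quenching reversal measured ClpP activation: 10 microg/mL B. subtilis ClpP at pH 8 with the FRET-FV decapeptide, read at 430 nm after 320 nm excitation. The 20-min minus 0-min signal was scaled between DMSO/no-enzyme wells and ADEP (5.8 microM final).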
Sfp inh – qHTS Assay for Inhibitors of Bacillus subtilis Sfp phosphopantetheinyl transferase (PPTase) | 4'-phosphopantetheinyl transferase ffp (Bacillus subtilis), Q9F4F7 | Biochemical Sfp PPTase activity, qHTS | Potency, µM, without a hit: max response, negative = inhibition, hits mostly inhibitors | actives 3.5% (n = 310,000); active means well fitted inhibition curve with a large enough effect; inconclusive means small, poorly fitted or top-dose-only effect, or another doubt; inactive means no such curve, though single readings can be large or run the other way;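 further: the enzyme is Sfp with the accession as filed and its product quenches rhodamine fluorescence; potency means the concentration at half of the fitted maximal effect; 0% = enzyme reaction without inhibitor and -100% = no enzyme wells; top concentration of the series not given in the record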
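Fluorescence-quenching assay: 15 nM Sfp-PPTase preincubated 15 min at room temperature with compound, then 5 uM rhodamine-CoA and 12.5 uM BHQ-2-labelled YbbR peptide added. Fluorescence (ex 525/em 598 nm) read at start and after 30 min; difference gives rate.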
TRPV1 potentiator – HTS Assay for Compounds that Act as Potentiators of the Vanilloid Receptor 1; Transient receptor potential cation channel subfamily V member 1 (Homo sapiens), Q8NER1; TRPV1-expressing cells, Fluo-8 calcium influx, capsaicin EC20 potentiation; host cell line not named in the record; control for the full effect not named in the record; potentiation, % at 8.33 µM; actives 0.02% (n = 320,000); AID 540277, 2011; active means potentiation above 80%; inconclusive means 30% to 80%; inactive means below 30%; further: 0% is about no effect
Target sequence (Q8NER1 whole entry, looked up): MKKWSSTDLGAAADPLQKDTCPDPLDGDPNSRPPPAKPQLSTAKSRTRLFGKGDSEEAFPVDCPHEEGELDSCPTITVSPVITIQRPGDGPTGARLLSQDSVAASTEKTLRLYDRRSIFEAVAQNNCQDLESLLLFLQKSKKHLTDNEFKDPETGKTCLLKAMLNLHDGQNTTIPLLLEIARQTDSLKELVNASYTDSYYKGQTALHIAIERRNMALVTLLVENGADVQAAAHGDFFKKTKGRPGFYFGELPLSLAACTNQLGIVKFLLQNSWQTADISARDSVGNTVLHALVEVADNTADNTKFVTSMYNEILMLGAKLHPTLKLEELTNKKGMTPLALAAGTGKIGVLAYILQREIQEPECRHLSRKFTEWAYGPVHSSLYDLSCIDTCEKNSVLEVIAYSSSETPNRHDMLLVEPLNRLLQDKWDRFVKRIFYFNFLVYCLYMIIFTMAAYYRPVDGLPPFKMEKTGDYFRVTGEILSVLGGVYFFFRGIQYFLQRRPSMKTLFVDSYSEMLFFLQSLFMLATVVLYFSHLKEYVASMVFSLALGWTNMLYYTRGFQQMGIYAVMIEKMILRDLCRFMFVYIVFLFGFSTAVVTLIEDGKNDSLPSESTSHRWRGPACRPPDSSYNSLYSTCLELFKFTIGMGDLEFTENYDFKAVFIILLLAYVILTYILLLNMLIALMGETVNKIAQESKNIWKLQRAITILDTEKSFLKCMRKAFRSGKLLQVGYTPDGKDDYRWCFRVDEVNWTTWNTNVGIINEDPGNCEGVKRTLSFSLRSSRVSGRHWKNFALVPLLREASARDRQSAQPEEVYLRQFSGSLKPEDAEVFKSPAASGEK
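TRPV1-expressing cells were cultured overnight at 35.5C and loaded with Fluo-8 calcium dye for 40 to 90 min at room temperature. After a 10 s baseline, compound was added and calcium influx was read kinetically for 3 min (ex 480/em 520 nm).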
TRPML1 blocker – qHTS for Inhibitors of the Human Mucolipin Transient Receptor Potential 1 (TRPML1). activity change, negative = inhibition, % (test concentration not listed). TRPML1-inducible cells, Ca2+ dye fluorescence, FDSS; hits give low values; inhibition of EC80 agonist-evoked calcium signal. actives 0.02% (n = 390,000); in the data active means activity change below about -50%; inconclusive means about -30% to -50%; inactive means above about -30%;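 further: stimulus is agonist 54-4 at its EC80 concentration; on the % scale 0 is the no-effect control and ±100 the full control effect; compound concentration not given in the record; the text of the record puts the active cut at -80%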
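Calcium fluorescence in TRPML1-DL cells induced overnight with Tet: a 110 s read after compound pin addition, then a 110 s antagonist read after challenge with 54-4 at 4 uM final (EC80).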
Menin MLL FP FL – qHTS Assay for Inhibitors Targeting the Menin-MLL Interaction in MLL Related Leukemias: Competition With Fluorescein Labeled MLL-derived Peptide. Fluorescence polarization, fluorescein-MLL peptide displacement from menin. FP activity change, % at 61.4 µM. 290,000 tested, under 10 active. AID 1766, 2009; inconclusive = falling polarisation curve, or a change in total fluorescence; inactive = total fluorescence flat and polarisation flat or rising; no compound was filed as active; the % refers to the polarisation; negative = inhibition;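 further: % of control where 0% means no effect; inhibitors lower the polarisation; unlabelled MLL peptide was the positive control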
TRPML1 ag – qHTS for Agonists of the Human Mucolipin Transient Receptor Potential 1 (TRPML1); Mucolipin-1 (Homo sapiens), Q9GZU1; TRPML1-expressing cells, Ca2+ dye fluorescence, FDSS; host cell line not named in the record; reference of the full effect not given here; activation, % (concentration not given with the values); actives 0.12% (n = 410,000); in the data active = activation above about 50%; inconclusive = about 30% to 50%; inactive = below about 30%; further: 0% is about no effect; the text of the record puts the active cut at 80%
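Kinetic FDSS Ca2+ read in Tet-induced TRPML1-DL cells (ABD Ca8 dye plus quencher, 45-90 min RT loading): baseline, then compound, then 110 s agonist window; EC80 agonist 54-4 at 4uM final added afterwards for a 110 s antagonist window.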
PINK1 modulator – A Quantitative High throughput Screen to Identify Chemical Modulators of PINK1 Expression | actives 0.2% (n = 410,000) | AID 624263, 2012 | PINK1 immunofluorescence, high-content cytometry, 24 h | Potency, µM (titrated, usually from 76.6 µM), without a hit: top-dose activation (PINK1 increase), hits mostly activators; active = well fitted activation curve with a large enough effect; inconclusive = small, poorly fitted or top-dose-only effect; inactive = flat fitted curve, though single readings scatter; cell line not stated here;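 further: potency means the concentration at half of the fitted maximal effect; % of control where 0% means no effect; nearly all actives have a fitted effect of over 65% in size; a mitochondrial uncoupler was the plate control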
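Decision-based qHTS: stable cells, 24 h exposure to five compound concentrations, CCCP as control. Fixed cells stained for PINK1 plus nuclear, mitochondrial and cell markers, cytometer read.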
* hit, by the source's call; ? = inconclusive; · = no result given; [ ] = remark or other dose. Outcome played no part in choosing rows, and some 4.4% of all compounds hit somewhere here.

SMILES	ClpP mod	Sfp inh	TRPV1 potentiator	TRPML1 blocker	Menin MLL FP FL	TRPML1 ag	PINK1 modulator
CN(C)CCCNS(=O)(=O)c1ccc(NC2CCCCCC2)c([N+](=O)[O-])c1	·	-6.0%	2.0	4.2	·	0.6	4.6%
O=C(CN(Cc1ccc(F)cc1)C(=O)CCC(=O)Nc1ccccn1)NCc1ccc(F)cc1	·	8.3%	1.5	-8.9	7.3	0.4	2.9%
COc1cc(/C=C/C(C)=NNc2ccccc2)ccc1O	·	·	·	1.7	·	-1.0	10.7%
COc1ccccc1OCC(=O)N1CC2(C)CC1CC(C)(C)C2 (centres undefined)	0.6%	-3.0%	20.8	-3.6	1.1	-0.2	-0.9%
CCN(CC)CCn1c(OC)cc(=O)[nH]c1=O	1.0%	17.7%	-2.2	-4.7	4.1	-0.3	-1.3%
CCN(C(=O)c1c(C)oc2ncn(CC(C)C)c(=O)c12)c1cccc(Cl)c1	1.2%	·	·	?	·	-0.2	1.0%
COc1ccccc1C(CNC(=O)c1ccc(S(=O)(=O)NCc2ccco2)cc1)N(C)C (centres undefined)	-2.5%	5.4%	0.8	-15.9	1.9	-0.3	0.4%
COc1ccccc1CNC(=O)Cc1ccc(OC)c(OC)c1	·	-1.7%	-26.4	-6.8	-8.0	-0.6	-0.4%
COc1ccccc1NC(=O)Cn1c(C)nc2c(sc(=S)n2Cc2ccco2)c1=O	0.5%	-17.6%	-2.4	-6.2	9.1	0.0	0.4%
CC1(C(=O)NS(=O)(=O)c2ccc(F)cc2F)CCN1C(=O)CC1CCCC1 (centres undefined)	-1.8%	·	·	·	·	-0.2	-1.2%
COc1ccc(-c2nn(-c3ccc(C)cc3)c3c2cnc2ccc(C)cc23)cc1OC	-11.9%	·	·	0.5	·	0.7	0.3%
O=C(CSc1nnc(CNC(=O)c2ccco2)o1)Nc1cccc(C(F)(F)F)c1	-0.7%	16.7%	2.3	-21.7	3.8	0.9	3.0%
COc1ccc(OC)c(Cc2nnc(CCC(=O)NCc3ccsc3)o2)c1	·	23.4%	-6.7	8.2	-2.6	0.0	-0.2%
O=C(CN(Cc1ccc(Cl)cc1)C(=O)CN1C(=O)COc2ccccc21)NC1CCCC1	·	-26.9%	3.6	39.0	-0.5	0.8	-0.2%
Cc1cccc(N2CCN(C(=O)c3ccc(CNc4c(N5CCC(C)CC5)c(=O)c4=O)cc3)CC2)c1C	·	12.5%	-5.2	18.4	2.6	1.2	-0.3%
CN(C(=O)c1ccc2c(c1)N(Cc1ccccc1F)C(=O)c1ccccc1S2)C1CCCCC1	2.3%	·	·	50.4	·	3.6	3.5%
CN(CC(=O)Nc1ccc(N2CCOCC2)cc1)Cc1cc(=O)n2ccsc2n1	·	-10.1%	24.1	-6.1	1.3	0.0	1.4%
Cc1ccc(-n2c(=O)c3ccc(C(=O)NCc4ccccc4Cl)cc3n(CC(N)=O)c2=O)cc1	-3.4%	·	·	-11.3	·	-0.1	-4.4%
COc1cc(/C=C/c2nc3ccc([N+](=O)[O-])cc3s2)ccc1OCC(=O)O	·	10.2%	-4.6	·	9.7	·	·
CCOc1ccccc1N/C=C/C(=O)C(C)(C)C	-0.4%	0.8%	-13.4	8.4	-1.9	0.5	2.7%

Part of the list above with just TRPML1 blocker:
| SMILES | TRPML1 blocker |
| --- | --- |
| CN(C(=O)c1ccc2c(c1)N(Cc1ccccc1F)C(=O)c1ccccc1S2)C1CCCCC1 | 50.4 |
| Cc1ccc(-n2c(=O)c3ccc(C(=O)NCc4ccccc4Cl)cc3n(CC(N)=O)c2=O)cc1 | -11.3 |

Continued:
SMILES	ClpP mod	Sfp inh	TRPV1 potentiator	TRPML1 blocker	Menin MLL FP FL	TRPML1 ag	PINK1 modulator
COc1cccc(C(=O)NCc2ccco2)c1	0.4%	16.0%	15.6	-0.9	-2.4	-0.6	0.9%
COc1ccc(C(CNC(=O)c2cccc(NS(=O)(=O)c3ccc(C)c(F)c3)c2)N2CCCC2)cc1 (centres undefined)	·	·	1.1	12.4	·	3.2	-1.4%
COc1ccc2nc(NC(=O)c3ccc(NS(=O)(=O)c4cccs4)cc3)sc2c1	?	?	-18.8	-4.0	1.8	0.0	0.3%
CC(C)(C)C(=O)Nc1ccc(-c2nnc3n2CCCCC3)cc1	-0.9%	-9.5%	-3.7	4.3	·	0.3	-0.8%
CC1CCc2nn(CC(=O)NCc3ccc(F)cc3)cc2C1 (centres undefined)	0.8%	22.3%	-8.2	-14.4	-5.2	0.4	8.0%
N#Cc1c(-n2ncnc2-c2cccc(Br)c2)sc2c1CCCCC2	-4.1%	·	·	-7.3	·	-0.7	4.2%
CCOc1ccc(CC(=O)Nc2c(C(=O)Nc3ccc(OC)cc3OC)oc3ccccc23)cc1	31.1%	·	·	10.0	·	-0.4	2.8%
O=[N+]([O-])c1ccc(NN=Cc2ccc(O)cc2O)nc1	·	·	·	0.5	·	4.6	-0.4%
NC(=O)c1ccsc1NC(=O)COC(=O)Cc1c[nH]c2ccccc12	-3.6%	·	27.7	20.7	·	-0.5	1.4%
O=C(Nc1cccc(C(=O)N2CCCCC2)c1)C1CCCCC1	4.7%	·	·	29.7	·	-0.4	-1.0%
COc1ccc2c(CNCc3cccs3)c(C(=O)O)n(Cc3ccccc3)c2c1	-14.8%	·	·	17.2	·	0.0	-1.0%
COc1ccc(C2(C(=O)O)CCCC2)cc1	-1.0%	-5.4%	-2.3	-0.1	5.8	3.3	6.7%[38.3 µM]
CC1CC(C)CN(CCCNC(=O)C2CCCN(S(=O)(=O)N3CC(C)CC(C)C3)C2)C1 (centres undefined)	-2.5%	8.8%	-2.8	44.9	·	-0.5	-0.8%
CC1CN(C(=O)c2ccccc2)OC(c2ccc3c(c2)OCO3)O1 (centres undefined)	0.4%	-6.4%	·	6.0	-0.5	-0.3	·
Cc1cc(=O)[nH]c(N2CCc3ccccc3C2)n1	-0.9%	7.8%	-18.8	-5.8	-3.4	0.2	9.4%[38.3 µM]
O=C(CSc1ccccn1)NC1CCCC1	·	14.5%	-4.6	·	1.4	·	·
CN(C)c1ccc(/C=N/NC(=O)CNC(=O)/C=C/c2ccco2)cc1	·	-4.1%	-15.9	-21.8	-2.6	-0.2	0.2%
CCCCNC(=S)NNC(=O)c1ccc2c(c1)OCO2	-2.9%	14.7%	2.2	6.1	1.3	0.5	1.9%
O=C(O)c1cc(NC(=O)c2cccc(N3C(=O)c4ccccc4C3=O)c2)cc(C(=O)O)c1	-9.5%	3.7%	-4.3	7.9	-2.2	0.3	1.2%
CC(C)Cn1cnc2c1c(=O)n(CC(=O)NC(=O)NC(C)(C)C)c(=O)n2Cc1ccccc1	·	15.8%	20.0	-6.6	2.0	0.7	3.9%
Cc1ccnc(NS(=O)(=O)c2ccc(NC(=O)CN3C(=O)CCC3=O)cc2)n1	-2.5%	15.0%	?	-7.5	0.6	4.2	-1.9%
CCOC(=O)C1(C)NC(c2ccco2)C2C(=O)N(c3ccccc3)C(=O)C21 (centres undefined)	-0.9%	27.2%	-0.5	0.4	-1.1	0.1	0.7%
Nc1c(Cl)cc(N=Nc2ccccc2)cc1Cl	·	·	·	21.5	·	-1.2	1.7%
Cc1nc(N2CCCC2)ncc1C(=O)NCc1ccccc1Cl	-15.0%	·	·	4.6	·	1.5	1.1%
Clc1cccc(N2CCN(Cc3nnc(-c4ccccc4)o3)CC2)c1	-0.6%	6.8%	7.4	9.9	6.5	-0.2	1.2%
O=C(Nc1cccc(C(F)(F)F)c1)c1csc([C@H]2C[C@H](O)[C@@H](CO)O2)n1	-3.6%	·	·	·	·	-0.3	-0.9%
Cc1nc(Cl)sc1C(=O)Nc1cccc(Cl)c1	-2.7%	12.9%	16.4	22.4	2.2	1.5	3.2%
Cc1ccc(-c2nnc(CSc3nncn3N)o2)cc1	-0.5%	2.5%	3.7	14.3	14.8	0.2	-2.3%
COC(=O)c1scc(C)c1NC(=O)C(Cl)c1ccccc1 (centres undefined)	-0.8%	0.0%	3.4	-7.5	-2.8	1.4	-0.1%
CN(C)CCn1c(=O)n(Cc2ccccc2)c(=O)c2c3c(sc21)CCCCC3	-1.2%	-5.9%	0.1	-17.0	-3.8	-1.5	8.4%
N#Cc1ccccc1S(=O)(=O)N1CCN(C(=O)C2COc3ccccc3O2)CC1 (centres undefined)	-1.8%	·	?	19.2	·	1.4	-0.8%
COc1cc(/C=N/N2CCN(Cc3ccccc3)CC2)cc(OC)c1OC(C)=O	·	0.6%	-0.4	-3.6	4.3	-0.2	1.0%
CCCS(=O)(=O)C(=C1NCCO1)S(=O)(=O)CCC	-3.4%	9.5%	6.8	2.5	1.7	0.3	0.7%
CCNC(=S)N1CCN(CCN=CC2=C(O)CC(c3ccco3)CC2=O)CC1 (centres undefined)	-0.4%	11.1%	-2.4	-10.2	-2.1	-0.2	9.9%
Cc1nnc(C)n1/N=C/C=C/c1ccccc1	-1.1%	19.6%	-0.1	0.0	-0.3	-0.6	0.7%
CC(C)N(C(=O)CC1ON(C)C(=O)N1c1ccc(Cl)cc1)C(C)C (centres undefined)	·	13.0%	23.9	-17.3	5.4	-0.3	-0.1%
Nc1nc2c(ncn2[C@@H]2O[C@H](CNCc3cnc(N4CCOCC4)s3)[C@@H](O)[C@H]2O)c(=O)[nH]1	-4.3%	·	·	-6.6	·	1.0	2.9%
O=C(O)CCC(=O)NCC(=O)c1ccc(F)cc1	-0.5%	-11.6%	14.6	9.7	4.9	0.2	1.2%
CCN(CC)C(=O)c1cccc(-c2csc(C(O)c3ccccc3)n2)c1 (centres undefined)	-1.2%	·	·	20.5	·	2.4	0.6%
CCc1nnc(NC(=O)CSCc2cc(=O)n3cc(C)sc3n2)s1	-4.4%	-1.5%	-3.9	6.8	·	-0.6	0.3%
